GLA inh pH 4.5 – blocks human alpha-galactosidase A at pH 4.5; 230,000 tested, under 10 active; purified enzyme, 4-MU-alpha-Gal fluorescence, pH 4.5; P06280; AID 1467; activity change, negative = inhibition, % at 105 µM; inconclusive = small, poorly fitted or top-dose-only inhibition, or a rising curve; inactive = flat fitted curve, though single readings scatter; no compound was filed as active;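 note: 0% = full activity with enzyme and -100% = basal without enzyme; dose as in the result columns while the protocol names 77 µM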
Rango complex inh – prevents formation of the Rango-importin beta complex; Rango CFP/YFP FRET sensor + importin beta, 45 min; Potency, µM (series often up to 92.2 µM), for the others: top-dose inhibition of complex formation; 0.031% of 340,000 active; active = rising FRET ratio curve, often small or poorly fitted; inconclusive = mostly compound fluorescence or quenching in the first reads; inactive = flat curves in all reads;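 note: potency is the fitted concentration of half-maximal effect; 0% = DMSO wells and 100% = buffer wells lacking importin beta; nearly all actives have a fitted effect of over 15% in size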
Target sequence (Q14974 whole entry, looked up): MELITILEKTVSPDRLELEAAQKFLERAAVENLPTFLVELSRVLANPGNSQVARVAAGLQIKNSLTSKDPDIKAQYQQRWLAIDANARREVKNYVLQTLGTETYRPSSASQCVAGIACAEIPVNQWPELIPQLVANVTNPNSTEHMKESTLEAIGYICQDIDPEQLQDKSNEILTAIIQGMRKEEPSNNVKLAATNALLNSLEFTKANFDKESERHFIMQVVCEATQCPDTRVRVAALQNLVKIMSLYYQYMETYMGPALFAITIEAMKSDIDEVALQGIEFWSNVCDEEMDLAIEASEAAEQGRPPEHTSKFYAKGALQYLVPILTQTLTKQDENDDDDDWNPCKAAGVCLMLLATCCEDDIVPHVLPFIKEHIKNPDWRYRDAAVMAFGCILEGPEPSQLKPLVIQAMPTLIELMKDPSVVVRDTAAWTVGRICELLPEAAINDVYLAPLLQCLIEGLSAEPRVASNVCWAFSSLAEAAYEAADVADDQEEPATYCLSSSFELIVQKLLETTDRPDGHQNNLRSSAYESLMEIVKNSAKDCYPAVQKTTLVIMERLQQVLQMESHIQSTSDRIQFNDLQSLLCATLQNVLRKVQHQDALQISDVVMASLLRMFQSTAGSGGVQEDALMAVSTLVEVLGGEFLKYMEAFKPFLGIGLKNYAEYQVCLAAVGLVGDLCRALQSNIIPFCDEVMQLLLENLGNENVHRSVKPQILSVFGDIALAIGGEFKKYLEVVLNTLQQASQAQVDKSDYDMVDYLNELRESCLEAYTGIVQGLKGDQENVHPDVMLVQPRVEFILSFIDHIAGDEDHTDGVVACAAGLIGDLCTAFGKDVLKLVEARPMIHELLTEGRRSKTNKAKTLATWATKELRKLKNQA
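FRET biosensor Rango (snurportin 1 IBB between N-terminal EYFP and C-terminal Cerulean), 50 nM in PBS/1 mM DTT/0.02% Tween-20/0.1% BSA, preincubated 5 min RT with compound; 0.125 microM importin beta added, 45 min RT, CFP/YFP FRET ratio read.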
Rango release inh – inhibition of RanGTP-driven Rango-importin beta dissociation; O95149+P62826; Biochemical FRET Rango-importin beta, RanGTP-induced dissociation; Potency, µM (titrated, usually from 46.1 µM), inactives show top-dose activity change, negative = inhibition; 0.071% of 340,000 active; active means falling FRET ratio curve, often poorly fitted, with flat reads before Ran was added; inconclusive means other falling curves, or compound fluorescence or quenching; inactive means flat or rising ratio curve;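 note: potency is the fitted concentration of half-maximal effect; % of control where 0% means no effect; nearly all actives have a fitted effect of over 45% in size; -100% = wells without RanGTP and RCC1; the record marks most hits as doubtful in a second field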
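Recombinant Rango FRET biosensor (EYFP–snurportin 1 IBB–cerulean CFP10) at 0.1 uM premixed with 0.25 uM importin beta in PBS, 1 mM DTT, 0.02% Tween-20, 0.1% BSA. Compound added 5 min; RanGTP-RCC1 (0.6 uM Ran, 2 mM GTP, 0.2 uM RCC1) then triggers release, read at 45 min.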
miR-21 FLuc – miR-21 reporter, rising signal | HeLa miR-21 FLuc reporter, luciferase, 48 h | Potency, µM (titrated, usually from 38.3 µM), for inactives: at the highest dose reporter change, positive = more light | 340,000 tested, under 10 active | AID 2288; active = well fitted rising curve with a large enough effect; inconclusive = small, poorly fitted or top-dose-only effect; inactive = no such curve, though single readings can be large or run the other way;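 note: % of control where 0% means no effect; miR-21 action dims this reporter so a rising signal means less miR-21 action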
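HeLa cells endogenously expressing miR-21, stably carrying CMV-driven firefly luciferase with a downstream miR-21 binding site, 2000 cells/well. Titrations up to approximately 40 uM, 48 hours; luciferase luminescence read.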
An asterisk follows results filed as active; ? = inconclusive; . = not tested or not shown; & = joins results of further samples.

Results follow in this order: GLA inh pH 4.5, Rango complex inh, Rango release inh, miR-21 FLuc
> CCOC(=O)C1CCN(C(=O)/C=C/c2ccc(OC)cc2)CC1
    2.0, -0.9%, 2.9%, -10.9%
> CCC(=O)Nc1ccc(NCc2ccc(-c3ccccc3)cc2)cc1
    ., 0.4%, -18.4%, 1.0%
> CCN(CC)S(=O)(=O)c1ccc(N2CCOCC2)c(NC(=O)c2nn(C)c(=O)c3ccccc23)c1
    ., 1.5%, -7.4%, .
> CCOc1ccc2oc(C(=O)OCC(=O)N(CC(C)C)c3c(N)n(Cc4ccccc4)c(=O)[nH]c3=O)c(C)c2c1
    ., ?, 0.2%, .
> COc1ccc(S(=O)(=O)N2CCN(C(=O)CC(C)C)CC2)cc1
    ., -2.8%, 14.1%, 3.5%
> CCOC(=O)C(Cc1cc(C(C)=O)ccc1OCC)C(=O)OCC
    1.3, -6.6%, 4.0%, -2.3%
> COC(=O)c1cc(C(=O)OCC(=O)NC(=O)NCc2ccccc2)cc([N+](=O)[O-])c1
    ., 2.5%, 5.5%, .
> CCC(CO)Oc1cc(NCc2cccc(C(F)(F)F)c2)c2ncn(C(C)C)c2c1 (centres undefined)
    ., ?, ?, .
> CC(=O)c1ccc(NC(=O)c2ccccc2-c2ccccc2C(=O)O)cc1
    ., 5.2%, 4.0%, 3.6%
> COc1ccc(/C=C2/C(=O)N(CC3CCCO3)C(=S)N2C)c(OC)c1 (centres undefined)
    -6.7, ?, ?, -7.4%
> CCn1cnc2c1c(=O)n(CC(=O)OC)c(=O)n2Cc1ccccc1
    ., 0.4%, 13.2%, 2.7%
> O=C(NCCS(=O)(=O)NCc1ccccc1Cl)c1ccc2c(c1)OCO2
    ., -0.3%, 0.7%, .
> CCOC(=O)CSc1nc(N)c(C#N)c(-c2cccs2)c1C#N
    -6.8, 2.6%, -5.6%, -16.3%
> Cc1onc(-c2c(Cl)cccc2Cl)c1NC(=O)NNc1ccccc1
    -9.5, 1.3%, 9.8%, 0.0%
> CCc1nnc(NC(=O)c2sc3nc4cc(C)ccc4cc3c2N)s1
    3.9, ?, ?, -8.8%
> COCc1ccc(C(=O)NC2CCSc3ccccc32)cc1 (centres undefined)
    ., -3.2%, -7.0%, -27.1%
> COc1cccc(CC2(CO)CCN(Cc3cnc(N4CCOCC4)s3)CC2)c1
    -11.0, 0.6%, -7.3%, 3.3%
> CN(CCNC(=O)CCCOc1cc(=O)n(C)c2ccccc12)Cc1ccccc1
    0.2, 4.9%, -15.7%, -1.5%
> CCOc1ncccc1C(=O)Nc1ccc(OC)c(S(=O)(=O)N2CCOCC2)c1
    ., 0.2%, -0.6%, .
> COC(=O)/C(=N/Nc1ccccc1Cl)Sc1nnc(C(O)c2ccccc2)n1-c1ccccc1 (centres undefined)
    1.9, 1.6%, -11.1%, -4.0%
> O=C(NC(=S)Nc1ccc(Cl)c(C(=O)O)c1)c1ccc(OCc2ccccc2)cc1
    ., -0.7%, 13.6%, -6.3%
> O=c1c2ccccc2c(-c2ccccc2)nn1-c1ccccc1
    3.5, 2.6%, -12.1%, -4.8%
> CCCN(CCC)Cc1c(C(=O)N/N=C/c2c[nH]c3ccccc23)nnn1-c1nonc1N
    ., -2.0%, -14.0%, -4.5%
> COc1cc(C2CC(=O)Oc3c(C(CCN4CCOCC4)c4ccc(N(C)C)cc4)c(OC)cc(OC)c32)cc(OC)c1OC (centres undefined)
    -3.0, 1.5%, 11.2%, 0.1%
> Cc1nc(C)n(CCNS(=O)(=O)c2ccccc2)n1
    ., 0.1%, -14.6%, -3.4%
> CC1CC(C)(C)CC2(C1)NC(=O)N(CC(=O)NC1CCCc3ccccc31)C2=O (centres undefined)
    9.0, ?, -26.2%, 3.6%
> COc1cccc(Nc2nc3ccccc3c(=O)[nH]2)c1
    -6.3, 5.3%, -6.6%, -7.9%
> Cc1ccc(S(=O)(=O)c2cc3c(=O)n4cccc(C)c4nc3n(Cc3ccncc3)c2=N)cc1
    ., ?, ?, -3.6%
> Cc1oc(-c2ccoc2)nc1CN(Cc1ccccc1)CC1CC1
    -1.0, 0.4%, 2.4%, -2.8%
> COc1ccc(C(=O)N(CCCO)Cc2cc3c(C)ccc(C)c3[nH]c2=O)cc1OC
    0.8, 5.0%, ?, -5.6%

Entries of single compounds, quoted from the list. Order of values: GLA inh pH 4.5	Rango complex inh	Rango release inh	miR-21 FLuc
Listed for COc1cccc(Nc2nc3ccccc3c(=O)[nH]2)c1 = -6.3	5.3%	-6.6%	-7.9%
Listed for COC(=O)/C(=N/Nc1ccccc1Cl)Sc1nnc(C(O)c2ccccc2)n1-c1ccccc1 (centres undefined) = 1.9	1.6%	-11.1%	-4.0%
Listed for COc1ccc(S(=O)(=O)N2CCN(C(=O)CC(C)C)CC2)cc1 = .	-2.8%	14.1%	3.5%

Following part:
Results follow in this order: GLA inh pH 4.5, Rango complex inh, Rango release inh, miR-21 FLuc
> COc1ccc(OC)c(CCNC(=O)C2CCN(c3nnc(-n4cccc4)s3)CC2)c1
    -1.5, 5.7%, 7.8%, -3.5%
> Nc1ncnc2nc(Sc3ccc(Cl)cc3)[nH]c12
    -2.9, 1.0%, -6.2%, -17.3%
> Cn1c(C(=O)OCC(=O)NCCc2ccccc2)cc2sccc21
    0.2, 5.1%, -1.2%, -10.2%
> CSc1ccc(CN2CCN(S(=O)(=O)Cc3ccccc3)CC2)cc1
    ., ?, 9.2%, 0.8%
> CC(=O)Nc1ccc(N(C(=O)c2ccco2)C(C(=O)NC2CCCC2)c2ccncc2)cc1 (centres undefined)
    ., 4.8%, -4.4%, -2.7%
> Cc1occc1C(=O)NCc1cccc(CNC(=O)c2ccoc2C)c1
    0.5, -2.6%, 26.7%, -1.5%
> Cc1cc(C)c2c(=N)c3ccccc3n(CCCCCCCCn3c4ccccc4c(=N)c4c(C)cc(C)nc43)c2n1
    ., 0.4%, ?, .
> COC(=O)c1ccc(CNC(=O)C(C)N=C2NS(=O)(=O)c3ccccc32)cc1 (centres undefined)
    ., 2.5%, -11.6%, .
> NC(=O)c1ccsc1NC(=O)COC(=O)CNC(=O)c1ccc(Cl)cc1
    ., ?, -2.4%, .
> CC(C)c1ccc(NC(=O)[C@@H](C)NC(=O)[C@@H]2Cc3ccccc3CN2)cc1
    ., -1.2%, 8.2%, -14.2%
> COCCNC(=O)C(c1ccc(C)cc1)N(C(=O)CCC(=O)Nc1ccccn1)c1ccc(F)cc1 (centres undefined)
    ., -1.6%, 0.6%, -0.7%
> O=C(COC(=O)c1c[nH]c2ccccc12)Nc1ccccc1
    ., 3.9%, 14.0%, .
> CCN(CC)c1ccc(CNc2nc3ccccc3n2CC)cc1
    -5.8, 2.2%, 6.0%, -6.4%
> NS(=O)(=O)c1ccc(NC(=O)COC(=O)c2cc(Cl)ccc2[N+](=O)[O-])cc1
    6.9, -1.2%, -13.8%, 0.6%
> Nc1nccnc1C(=O)OCC(=O)c1ccc[nH]1
    ., -0.3%, -11.3%, .
> COc1ccccc1-n1cnnc1SCC(=O)N1CC(=O)Nc2ccccc21
    1.9, -3.6%, 0.1%, -1.9%
> Cc1cc2ccccc2n1CCNC(=O)c1ccc(S(=O)(=O)N2CCCCC2)cc1
    -5.8, ?, ?, 2.6%
> CCCCCCC(=O)N/N=C(\C)Cc1ccccc1
    7.4, 1.7%, -25.3%, -7.5%
> O=C(/C=C/c1cccc(F)c1)Nc1ccc(S(=O)(=O)Nc2ncccn2)cc1
    1.1, -0.1%, -14.2%, -17.1%
> COc1cccc(CN2CCN(Cc3nc4c(s3)CCCC4)CC2CCO)c1 (centres undefined)
    -12.4, -4.3%, 8.1%, 2.8%
> CC(=O)Nc1ccc(NC(=O)CSc2nnc(NC(=O)c3ccco3)s2)cc1
    ., ?, 0.0%, 5.9%
> COc1cccc2sc(Nc3nc(-c4ccncc4)cs3)nc12
    -2.7, -1.4%, 5.2%, 10.1%
> CCC(C)(C)NC(=O)Cc1ccc(C)cc1
    5.8, -3.9%, -5.0%, -12.1%
> COc1ccc(P(=O)(COc2ccc([N+](=O)[O-])cc2)c2ccc(OC)cc2)cc1
    -10.2, 2.0%, 23.6%, 0.9%
> O=C(NC1CCCCC1)c1cc(C2CC2)on1
    8.9, 1.9%, 0.7%, -44.8%
> Cc1cc(C)cc(OCCCn2ccnc2)c1
    ., 0.2%, -2.7%, -1.0%
> Cc1sc2nc3ccc(N4CCCC4)nn3c(=O)c2c1C
    1.5, ?, ?, -10.3%
> Cc1ccc(C(=O)CSc2nc(C)cc(SCc3nnc(-c4ccccc4)o3)n2)cc1
    4.9, -0.1%, -8.2%, 0.3%
> COc1cc(C)c(C(=O)Oc2cc(C)c(C(=O)O)c(O)c2C)c(OC)c1C
    -1.7&-2.9, 0.6%, 0.6%, 16.1%
> COc1ccc2[nH]c(=O)c(C3c4cc(OC)c(OC)cc4CCN3C(=O)c3ccco3)cc2c1 (centres undefined)
    ., -2.3%, -1.6%, -12.3%
> CC(C)(C#N)N([O-])C=C[N+](=O)C(C)(C)C#N
    -4.4, 3.5%, -3.2%, -3.7%
> O=C(NC(=S)Nc1ccc(Cl)cn1)c1cc([N+](=O)[O-])ccc1N1CCOCC1
    ., 2.6%, ?, -0.1%
> O=C(O)c1ccc(COc2ccccc2C=C2C(=O)c3ccccc3C2=O)cc1
    -4.8, -0.1%, 1.3%, -19.7%
> CCC1CCCCN1C(=O)COC(=O)c1cc(Br)ccc1Cl (centres undefined)
    8.0, 0.3%, 17.3%, -0.4%
> O=C(OCC(=O)N1CCN(C(=O)c2ccco2)CC1)c1ccc(Cl)cc1
    ., -2.7%, 13.0%, .
> Cc1ccc(NC(=S)NC(NC(=O)C(C)(C)C)C(Cl)(Cl)Cl)c(C)c1 (centres undefined)
    -1.4, 0.2%, 14.9%, 10.6%
> COC(=O)c1c(NC(=O)CN2CCC(C)CC2)c2c(C)cccc2n1C
    -1.7, ., ., -2.1%
> O=C1c2ccsc2SCCN1Cc1ccccc1
    -4.5, -1.9%, -5.6%, -5.0%
> O=C(c1ccc(=O)[nH]c1)N1CCCc2ccccc21
    ., 1.8%, -8.1%, 4.4%
> Cc1cc(C)c2nc(N3CCCC(C(=O)NC4CCCC4)C3)sc2c1 (centres undefined)
    ., -0.2%, -3.7%, -0.2%
> CCO[C@H]1OC(C(=O)O)=C[C@@H](C2CC2)[C@@H]1CCCO
    -2.3, ., ., 0.2%
> O=C(NC1=NCCS1)c1ccc(F)c(S(=O)(=O)N2CCOCC2)c1
    ., -1.0%, ?, .
> Nc1cccc(S(=O)(=O)NC2=NCCC2)c1
    -0.2, -1.9%, 18.6%, -0.7%
> O=C(CN1C2CCCC1CC(NC(=O)c1ccccc1)C2)Nc1ccccc1C(F)(F)F (centres undefined)
    ., 2.6%, -17.7%, -1.6%
> Cn1nnnc1SCCNCc1ccccc1OCc1ccccc1
    -5.6, -0.1%, -3.6%, -12.9%
> CCc1ccc(NC(=O)CNS(=O)(=O)c2c(C)noc2C)cc1
    -2.2, 1.3%, -8.4%, -7.3%
> C[C@H]1COC(=O)[C@@H](NC(=O)OCC2c3ccccc3-c3ccccc32)C/C=C\C[C@H](CC(=O)NCCO)C(=O)N1
    ., 1.0%, 7.5%, .
> CN1/C(=C\C(=O)COC(=O)CN2C(=O)C3CC=CCC3C2=O)C(C)(C)c2ccccc21 (centres undefined)
    6.3, 0.3%, 2.4%, -1.4%
> O=C(Cc1cccs1)N/N=C/C=C/c1ccccc1[N+](=O)[O-]
    -3.8, 4.8%, 0.0%, -62.0%
> COC(CN(C)C(=O)c1ccc2c(c1)NC(=O)c1ccccc1S2)OC
    ., 5.1%, -7.6%, 1.1%
> COC(=O)C1C=CC(OC2OC(COC(C)=O)C(OC(C)=O)C(OC(C)=O)C2OC(C)=O)n2c(=O)n(-c3ccccc3)c(=O)n21 (centres undefined)
    ., 4.0%, -18.7%, .
> CCOc1ccc(NC(=O)c2ccccc2NS(C)(=O)=O)cc1
    -5.1, 1.4%, -9.0%, -25.0%
> CC1=CCC2C(=O)N(C(C)c3ccccc3)C(=O)C2C1 (centres undefined)
    12.8, -2.3%, 6.9%, -1.4%
> CCOC(=O)CC(NC(=O)CCc1c(C)nc2nc(C)nn2c1C)c1ccc(OC(C)C)cc1 (centres undefined)
    0.6, -2.4%, 7.5%, -0.6%

Not all compounds are listed; rates above refer to the full screens.
